# HNF4A DNA FP: change in binding of human HNF4 alpha to DNA. activity change, % at 10 µM. hit rate 0.3% among 360,000. HNF4a-FITC DNA binding, fluorescence polarization, 1 h. AID 1224865. P41235; in the data active means activity change above about 30%, passing the limit was not always enough;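 further: controls were the assay level and a saturating level of protein; the project sought stronger binding though the title names inhibitors; some compounds called inactive have numbers as strong as hits; positive values seem to mean higher polarization but the record does not say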
# FGF22 binding: binders of recombinant human FGF22 by thermal shift. Q9HCT0. SYPRO orange fluorescence; percent of sucrose octasulfate shift, DMSO zero. calls only at 9.99 µM. hit rate 1.5% among 340,000. AID 651658;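 active means melting point raised past a set limit in the mean and every replicate; inconclusive means no clear call; three in four hits are not shown here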
# Target sequence (Q9HCT0 whole entry, looked up): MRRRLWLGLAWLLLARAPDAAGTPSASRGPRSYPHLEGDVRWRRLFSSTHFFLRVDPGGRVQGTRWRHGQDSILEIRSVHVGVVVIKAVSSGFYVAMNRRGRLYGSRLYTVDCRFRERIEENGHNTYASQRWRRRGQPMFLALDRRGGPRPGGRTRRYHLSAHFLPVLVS
# E coli growth: inhibitors of Escherichia coli growth | AID 1053175 | OD600 absorbance (concentration not given with the values) | hit rate 0.21% among 330,000 | OD600, 23 h; active compounds read low;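 active means OD600 absorbance below the run mean of sample wells minus 3.6 SD, in any replicate, cut at about 0.56 in these data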;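 further: stock transfer was 300 nL into about 60 µL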
# ALR inh: human ALR oxidase inhibition via reduced H2O2 | AID 485317 | purified ALR, DTT oxidation, H2O2 HRP-luminol luminescence | hit rate 3.8% among 290,000 | P55789 | inhibition, % (no concentration beside the values);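 active means mean and each replicate at 75% or more; inconclusive means only one of the two met; inactive means neither met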;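 further: stock transfer was 7.5 nL into about 7.5 µL; 0% = neutral wells and 100% = wells with inactivated enzyme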
# Target sequence (P55789 whole entry, looked up): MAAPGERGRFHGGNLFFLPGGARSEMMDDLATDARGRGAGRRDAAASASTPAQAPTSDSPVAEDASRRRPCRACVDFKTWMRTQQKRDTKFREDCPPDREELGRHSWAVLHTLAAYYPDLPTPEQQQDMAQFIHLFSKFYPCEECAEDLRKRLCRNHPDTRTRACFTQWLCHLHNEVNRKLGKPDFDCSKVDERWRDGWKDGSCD
# AF4-AF9 inh: MLL-AF4/AF9 protein interaction inhibition; hit rate 0.47% among 350,000; inhibition, % at 10 µM; AlphaScreen, biotin-AF4 peptide binding to FLAG-AF9;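 active means every replicate reaching a set inhibition limit, whatever the replicate mean, cut at about 25% in these data; inconclusive means mean inhibition reaches that limit but some replicates miss it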;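 further: 0% = plate neutral control median and 100% = total signal loss; the record names both 10 and 1 µM as test concentration; the first replicate is given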
# Target sequence (P42568 whole entry, looked up): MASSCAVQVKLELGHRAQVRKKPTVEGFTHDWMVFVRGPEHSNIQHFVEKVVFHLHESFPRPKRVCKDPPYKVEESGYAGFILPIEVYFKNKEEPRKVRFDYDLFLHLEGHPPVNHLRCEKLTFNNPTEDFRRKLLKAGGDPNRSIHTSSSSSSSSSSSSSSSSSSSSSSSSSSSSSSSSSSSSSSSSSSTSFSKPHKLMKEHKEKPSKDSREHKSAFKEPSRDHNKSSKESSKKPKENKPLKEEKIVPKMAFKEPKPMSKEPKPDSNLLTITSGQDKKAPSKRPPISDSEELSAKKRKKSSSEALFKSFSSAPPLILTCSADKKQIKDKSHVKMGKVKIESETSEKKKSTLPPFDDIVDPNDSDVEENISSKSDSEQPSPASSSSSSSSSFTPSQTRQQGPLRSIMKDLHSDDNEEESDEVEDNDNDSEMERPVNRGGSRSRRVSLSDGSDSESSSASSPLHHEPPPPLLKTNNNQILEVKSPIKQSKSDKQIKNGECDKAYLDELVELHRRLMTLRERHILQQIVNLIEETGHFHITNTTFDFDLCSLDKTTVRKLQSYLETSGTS
# Vif TR-FRET: HIV-1 Vif–A3G interaction blockers – biochemical, TR-FRET, GST-Vif 1-94, biotin-A3G peptide, dose response retest, primary screen (AID 1117319). TR-FRET GST-Vif / biotin-A3G peptide binding; higher % means a stronger effect; test concentration not given here; strong numbers were not always called active. one-dose inhibition, %; IC50 in µM for titrated hits. hit rate 0.57% among 260,000;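 active means above the screen mean plus three standard deviations and confirmed in dose response; inconclusive means results disagree or hit not tested in dose response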;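 further: Vif residues 1-94 fused to GST binding biotinylated APOBEC3G peptide 110-148; 0% = full assay without inhibitor and 100% = GST in place of GST-Vif; retest series ran down from 100 µM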
# Ecoli rRNA inh: inhibits bacterial ribosomal RNA function over humanized ribosomes | GFP signal change (wild-type ribosome), % (no concentration beside the values) | AID 720706 | E. coli WT GFP vs humanized-ribosome RFP mutants, fluorescence, 24 h; active compounds read low; DMSO median 0, no signal -100 | hit rate 1.6% among 350,000;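 active means significant combined selectivity score with lowered wild-type GFP, culture density cut under 30%, mutant RFP and density less affected; inactive means any of these conditions unmet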; further: one replicate is shown; some compounds called inactive have numbers as strong as hits
# Ecoli rRNA inh OD600: further read-out of Ecoli rRNA inh, marked with its call; OD600 change, %; measured here: OD600 growth;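 optical density of the mix in the first replicate; 0 = DMSO median and -100 = no signal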
# Ecoli rRNA inh RFP: also measured in Ecoli rRNA inh; calls as there; RFP signal change, %; measured here: RFP humanized mutant strains;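 first replicate; 0 = DMSO median and -100 = no signal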
# * = called active by the depositor; i = inactive; ? = inconclusive; / = not tested or not shown; & = joins results of further samples. This is a subset, so the mix of outcomes need not match the whole.
SMILES,HNF4A DNA FP,FGF22 binding,E coli growth,ALR inh,AF4-AF9 inh,Vif TR-FRET,Ecoli rRNA inh,Ecoli rRNA inh OD600,Ecoli rRNA inh RFP
O=c1cc(C(F)(F)C(F)F)oc2ccccc12,-0.5,i,0.67,-9,-3.7,1%,6,4,-2.4
COc1ccc(NC(=O)CC23CC4CC(CC(Br)(C4)C2)C3)c(OC)c1,-2.6,i,0.69,3,0.6,/,3,8,1.5
CCC(=O)N1CC(=O)N2[C@H](C1)[C@H](c1ccc(C#CCC(C)C)cc1)[C@@H]2CO,/,i,/,/,-1.7,/,0,-3,3.1
CC(C)C(=O)Nc1oc(-c2ccccc2)cc1C#N,-4.7,i,0.66,/,-6.5,0%,-14,-16,-3.1
Fc1ccccc1Cn1c2[n+](c3ccc(C(F)(F)F)cc31)CCCCC2,2.5,i,0.65,/,-0.2,/,-18,-17,3.5
C=CCNC(=O)c1ccccc1NC(=O)c1ccc(Cl)c(S(=O)(=O)Nc2cccc(C)c2C)c1,0.9,i,0.72,-5,0.3,27%,-40*,-4.9*,9.2*
O=C(CSc1nnc(SCC(=O)NCc2ccc3c(c2)OCO3)s1)NCc1ccc2c(c1)OCO2,2.6,/,0.72,/,/,31%,/,/,/
CC(C)c1nnc(NC(=O)C2CCN(C(=O)Nc3ccc(Cl)cc3)CC2)s1,2.0,i,0.66,1,-0.4,-1%,-23*,-14*,-3.1*
O=C(Nc1ccc2c(c1)OCO2)N[C@H]1C=C[C@H](CC(=O)N2CCN(c3ccccc3)CC2)O[C@H]1CO,/,i,/,/,0.6,/,1,1,-0.2
CN(C)CCNC(=O)C(=O)NCC1OCCCN1S(=O)(=O)c1cccs1 (stereo not drawn),-1.3,/,0.67,0,/,?,/,/,/
N#Cc1ccccc1S(=O)(=O)c1ccccc1C(=O)Nc1ccccc1,-0.4,i,0.67,/,1.1,7%,-4,-3,-1.3
Oc1ccccc1/C=C/c1noc(-c2ccccc2O)n1,0.0,i,0.65,-2,-2.3,-14%,-1,5,4.7
CC1=Nc2cc(C(=O)O)ccc2Sc2ccc(Br)cc21,-4.3,i,0.81,/,1.5,19%,-5,-15,4.1
CCOC(=O)N1CCN(C(=O)C[C@@H]2C[C@@]3(C(=O)OC)CCCCC=C3N(Cc3ccc(Cl)cc3Cl)C2=O)CC1,3.8,i,/,/,5.8,/,-8,-8,2.9
O=S(=O)(c1ccc(F)cc1)N1CCCCN2[C@H](CO)[C@@H](c3ccc(-c4ccccc4)cc3)[C@@H]2C1,/,i,/,/,-5.1,/,0,-9,1.0
C[C@@H]1CN([C@@H](C)CO)C(=O)c2cccc(NC(=O)Nc3cccc4ccccc34)c2O[C@@H]1CN(C)Cc1ccc(C(F)(F)F)cc1,/,i,/,/,0.8,/,-1,-3,1.1
COc1c(O)cc(O)c2c(=O)cc(-c3ccccc3)oc12,-0.3,i,0.76,/,-2.0,/,-12,-2,-12
Cc1ccc(NC2=NCC(=O)N2C2CCCC2)c(C)c1,-1.6,/,0.76,2,/,7%,/,/,/
COc1ccc(N(CC(=O)NCCC2=CCCCC2)S(=O)(=O)c2ccccc2)cc1OC,-1.0,i,0.7,-2,-0.2,2%,6,24,-4.1
Cc1cccc(NC(=O)Cn2nnc(C(=O)Nc3ccc(F)c(Cl)c3)c2N)c1,5.9,i,0.71,-5,5.2,/,12,19,1.3
CCCN(CCC)C(=O)CSc1ncccc1C(=O)O,4.1,/,0.66,-3,/,?,/,/,/
O=C(CCCn1c(=S)[nH]c2cc3c(cc2c1=O)OCO3)N1CCN(C2CCCCC2)CC1,2.2,/,0.66,83*,/,26%,/,/,/
CCCN1C[C@H](C)[C@@H](OC)CN(C)C(=O)c2cc(NC(=O)NC3CCCCC3)ccc2OC[C@H]1C,/,i,/,/,-1.6,/,1,-7,0.4
Cc1ccc(C(=O)OCCc2c(C)[nH]n(-c3ccccc3)c2=O)cc1,-0.3,/,0.65,5,/,2%,/,/,/
COC(=O)c1ccccc1NC(=O)CSc1nncn1-c1cccnc1,2.6,i,0.71,/,-0.1,/,2,-3,-0.1
O=C(Nc1ccc(F)cc1Cl)C1=COCCO1,-0.5,i,0.63,-1,-22,4%,9,11,-0.9
Cc1noc(C)c1S(=O)(=O)Nc1ccc2c(c1)C(=O)N([C@H](C)CO)C[C@H](C)[C@@H](CN(C)Cc1ccc3c(c1)OCO3)O2,/,i,/,/,-0.4,/,-2,1,-0.5
O=C(CCCc1nc(-c2ccc(Cl)cc2)no1)Nc1cccnc1,3.4,/,0.65,-4,/,8%,/,/,/
CC1=C(OC(=O)C(C)(C)C)C(C)(C)C(c2ccccc2)OC1=O (stereo not drawn),3.3,/,0.69,-1,/,/,/,/,/
COc1ccc(S(=O)(=O)Nc2ccc(O)c(Sc3nc4ccccc4s3)c2)cc1,-1.5,/,0.66,17,/,/,/,/,/
CC(C)C(=O)N1CCN(c2ccc([N+](=O)[O-])c(NC(C)c3ccccc3)c2)CC1 (stereo not drawn),4.0,i,0.64,3,16,/,-34,-41,-14
O=C(NNC(=O)c1ccc2ccccc2c1O)c1cccs1,-2.5,i,0.58,11,-0.6,/,-21,-24,-2.8
Oc1ccc(C2=NNC(=NCc3ccc4c(c3)OCO4)SC2)c(O)c1,0.5,/,0.69,95*,/,7%,/,/,/
CC1(C(=O)Nc2cnc3ccccc3c2)CCN1CCc1ccccc1 (stereo not drawn),-3.0,i,/,/,-4.6,/,-58,-79,-17
CCCCOc1ccc(C(=O)NN2CCN(C)CC2)cc1,-0.4,/,0.66,15,/,1%,/,/,/
Cc1noc(C)c1NC(=O)N[C@H]1CC[C@H](CCNC(=O)C2CCC2)O[C@@H]1CO,/,i,/,/,-0.4,/,0,7,-1.1
COc1ccccc1OCCCCN1CCN(C(c2ccccc2)c2ccccc2)CC1,1.0,/,0.65,-10,/,-1%,/,/,/
COc1cccc(C(CCc2cc(OC)c(OC)c(OC)c2)NC(C)=O)c1 (stereo not drawn),1.4,i,0.67,/,-0.8,-8%,3,0,1.5
CCCN(CC(=O)Nc1ccccc1C)C(=O)c1ccc(=O)n(Cc2ccccc2)n1,0.2,/,/,-10,-1.1,/,12,13,0.9
CCC(=NOCc1ccccc1)C(=O)NNS(=O)(=O)c1ccc(C)cc1,4.4,i,0.7,/,-59,0%,0,-3,3.8
COc1ccccc1/C=C1/C(=O)ON=C1C,0.6,i,0.65,98*,-0.1,-5%,10,23,2.0
COc1ccc(S(=O)(=O)Nc2ccc3c(c2)CC(=O)N([C@@H](C)CO)C[C@H](C)[C@@H](CN(C)C)O3)cc1,/,i,/,/,-7.6,/,5,8,1.6
O=C(CSCc1ccc(Cl)cc1)Nc1ccc2c(c1)OCCO2,0.7,/,0.69,75,/,-2%,/,/,/
CC1CCC(=NNc2ccc(C(F)(F)F)cc2[N+](=O)[O-])CC1 (stereo not drawn),3.5,i,0.68,-1,-6.5,/,-4,-13,-7.0
Cc1ccc(CNc2ccc(N3CCN(C)CC3=O)cc2)cc1,-7.5,i,0.66,-18,1.6,/,-1,4,-8.7
COc1cc2c(cc1OC)C(c1ccc(SC)cc1)CC(=O)N2 (stereo not drawn),-0.7,i,0.68,-1,9.5,/,-4,-4,6.8
COCCN1C(=O)COc2ccccc2C1C(=O)NC1CCCCC1 (stereo not drawn),0.5,i,/,/,0.2,/,/,/,/
COC(=O)c1ccc(CNC(=O)CSc2nc3sc(C)c(C)c3c(=O)n2C)o1,2.8,i,0.59,0,3.0,7%&-12%,1,-1,-2.0

# Random excerpt: 2 compounds from above.
SMILES,HNF4A DNA FP,FGF22 binding,E coli growth,ALR inh,AF4-AF9 inh,Vif TR-FRET,Ecoli rRNA inh,Ecoli rRNA inh OD600,Ecoli rRNA inh RFP
COc1ccc(S(=O)(=O)Nc2ccc3c(c2)CC(=O)N([C@@H](C)CO)C[C@H](C)[C@@H](CN(C)C)O3)cc1,/,i,/,/,-7.6,/,5,8,1.6
CCC(=NOCc1ccccc1)C(=O)NNS(=O)(=O)c1ccc(C)cc1,4.4,i,0.7,/,-59,0%,0,-3,3.8

# Following part.
SMILES,HNF4A DNA FP,FGF22 binding,E coli growth,ALR inh,AF4-AF9 inh,Vif TR-FRET,Ecoli rRNA inh,Ecoli rRNA inh OD600,Ecoli rRNA inh RFP
CC(C)C#Cc1cnc2c(c1)C(=O)N([C@@H](C)CO)C[C@@H](C)[C@@H](CN(C)C(=O)c1ccccn1)O2,/,i,/,/,-0.7,/,6,10,-0.6
O=C(NC1CC(=O)N(c2cccc(F)c2)C1)N1CCN(C(=O)c2ccco2)CC1 (stereo not drawn),3.1,i,0.72,-2,-0.4,2%,10,7,-1.0
COc1cccc(N(CC(=O)N2CCN(Cc3ccccc3)CC2)S(C)(=O)=O)c1,0.2,i,/,/,-0.8,3%,7,14,-2.2
CCOCc1nnc(NC(=O)C2c3ccccc3Oc3ccccc32)s1,1.7,i,0.71,50,-1.1,-8%,20,22,2.2
COc1ccc(/C(O)=C2/C(=O)C(=O)N(c3ncccn3)C2c2ccc(OC)cc2)cc1 (stereo not drawn),-0.1,i,0.68,11,-1.6,/,10,9,1.7
COc1ccc(C2=NN(CN3C(=O)C(=O)c4ccccc43)C(c3ccc(C)cc3)C2)cc1 (stereo not drawn),0.4,/,0.69,-2,/,1%,/,/,/
COC(=O)c1[nH]c2ccc(C)cc2c1NC(=O)CN1CCN(Cc2ccccc2)CC1,-0.3,/,0.74,-1,/,12%,/,/,/
Cc1nc2c(oc3ccc(Cl)cc32)c(=O)[nH]1,1.5,i,0.66,-2,-2.7,21%,-2,3,3.4
COC(=O)c1ccc(CSc2nnc(CNC(=O)c3ccc(OC)cc3)o2)o1,2.4,/,0.69,-1,/,-1%,/,/,/
O=C(O)CSc1nnc(-c2ccc(Cl)cc2Cl)n1-c1ccccc1,-3.0,i,/,12,-1.6,/,-16,-21,-12
O=c1o[nH]c(-c2ccccc2)c1-c1ccccc1,4.2,i,0.66,89*,0.5,/,-7,-9,4.7
COCCNC(=O)CCc1ccc(S(=O)(=O)Nc2ccc(C)cc2)cc1,-1.2,/,0.66,2,/,1%,/,/,/

# Overlap with the part before: 4 compounds, followed by the next part.
SMILES,HNF4A DNA FP,FGF22 binding,E coli growth,ALR inh,AF4-AF9 inh,Vif TR-FRET,Ecoli rRNA inh,Ecoli rRNA inh OD600,Ecoli rRNA inh RFP
COC(=O)c1ccc(CSc2nnc(CNC(=O)c3ccc(OC)cc3)o2)o1,2.4,/,0.69,-1,/,-1%,/,/,/
O=C(O)CSc1nnc(-c2ccc(Cl)cc2Cl)n1-c1ccccc1,-3.0,i,/,12,-1.6,/,-16,-21,-12
O=c1o[nH]c(-c2ccccc2)c1-c1ccccc1,4.2,i,0.66,89*,0.5,/,-7,-9,4.7
COCCNC(=O)CCc1ccc(S(=O)(=O)Nc2ccc(C)cc2)cc1,-1.2,/,0.66,2,/,1%,/,/,/
Cc1cc(NC(NC(=O)c2ccco2)(C(F)(F)F)C(F)(F)F)no1,-2.9,/,0.65,4,/,-3%,/,/,/
COc1cccc(S(=O)(=O)N2CCN(C(=O)c3ccco3)CC2)c1,-5.1,i,0.66,/,-0.7,2%,7,-2,-1.2
CC(=O)CCc1oc2ccc(C)cc2c1-c1ccccc1,4.6,i,0.66,-5,-1.2,9%,-12,-5,2.0
COCc1n[nH]c(=S)n1-c1cccc2ccccc12,-2.9,/,0.66,69,/,21%,/,/,/

# Bioassay records as filed in PubChem.
